HCMV NEC inh: inhibitors of HCMV UL50-UL53 interaction, biochemical, HTRF | HCMV UL50-UL53 nuclear egress complex (human cytomegalovirus) | normalized percent inhibition | inhibition, % (concentration not given with the values) | AID 1918969, 2023 | 190,000 compounds, 0.15% hits;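 active = both replicates at 50% or more, plus weaker picks with an unusually low signal ratio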;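 also: stock transfer was 100 nL into about 20 µL; 0% = negative control wells and 100% = wells with untagged competitor protein; inactives centre near -12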
Sa growth inh: S. aureus growth inhibition at 42 and 30 °C, primary screen, LtaS inhibitor project, RN4220, two temperatures. OD600, 20 h, 42 °C; hits give low values. 170,000 compounds, 0.53% hits. AID 720641, 2013. relative growth, % (no concentration beside the values);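 active = growth at 42 °C up to 50% and 20 or more points under that at 30 °C, or under 10% at both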;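 also: 300 nL library stock went into each well; scaled to the means of positive and negative controls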
GIV Gai3 FP: inhibitors of GIV peptide binding to Galpha-i3, primary screen, biochemical, fluorescence polarization, FITC-GIV GBA peptide, rat Galphai3. AID 1224905, 2016. Guanine nucleotide-binding protein G(i) subunit alpha-3 (Rattus norvegicus), P08753. percent of control (FP), % (test concentration not listed). 90 min; hits give low values; scaled: aluminum fluoride 0%, vehicle 100%. 210,000 compounds, 0.42% hits;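 active = replicate mean at 85% of control or lower, very high polarization wells dropped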;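 also: wells of about 15 µL received 100 nL stock; the first replicate is given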
Target sequence (P08753 whole entry, looked up): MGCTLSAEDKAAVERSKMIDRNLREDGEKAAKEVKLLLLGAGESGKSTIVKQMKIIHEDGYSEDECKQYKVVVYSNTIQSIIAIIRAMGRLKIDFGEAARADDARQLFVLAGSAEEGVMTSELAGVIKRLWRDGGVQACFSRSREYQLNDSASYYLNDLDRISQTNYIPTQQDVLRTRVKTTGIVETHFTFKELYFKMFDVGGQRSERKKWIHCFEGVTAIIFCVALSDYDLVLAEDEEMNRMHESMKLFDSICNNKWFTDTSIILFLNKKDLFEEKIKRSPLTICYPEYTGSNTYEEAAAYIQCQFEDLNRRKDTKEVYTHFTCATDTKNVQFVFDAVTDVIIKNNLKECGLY
Sa growth inh second temp: second read-out of Sa growth inh, no call of its own (marks repeat the call); relative growth, %; measured here: growth at 30 °C;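 optical density after 20 h as mean of two plates; 100% = untreated growth and lower means inhibition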
Starred values were filed as active, the others as inactive. Rows were taken by chance (roughly 0.83% active in at least one column).

The first 5 entries as a preview:
For CCN(CC)S(=O)(=O)c1ccc2c(c1)N(CC(=O)Nc1ccc(C)cc1C)C(=O)C1CCCN21 (stereo not given) the results were Sa growth inh 80.9, GIV Gai3 FP 106.0 and Sa growth inh second temp 78.8.
`S=C(NCc1cccnc1)c1ccccc1` gave HCMV NEC inh -38.7, Sa growth inh 114.6, GIV Gai3 FP 102.6 and Sa growth inh second temp 87.2.
CCC(=O)N1CCc2cc(S(=O)(=O)NC(CC(C)C)C(=O)Nc3cc(C)ccc3OC)ccc21 (stereo not given) was read as HCMV NEC inh -17.6, Sa growth inh 99.5, GIV Gai3 FP 104.8 and Sa growth inh second temp 90.9.
`O=C(O)Cn1cccn1` gave HCMV NEC inh -8.3, Sa growth inh 98.2 and Sa growth inh second temp 89.1.
`Cc1nsc(NC(=O)c2oc3ccc(Cl)cc3c2C)n1` gave HCMV NEC inh -6.8 and GIV Gai3 FP 110.1.

All compounds of this part (from the top)
For CCN(CC)S(=O)(=O)c1ccc2c(c1)N(CC(=O)Nc1ccc(C)cc1C)C(=O)C1CCCN21 (stereo not given) the results were Sa growth inh 80.9, GIV Gai3 FP 106.0 and Sa growth inh second temp 78.8.
`S=C(NCc1cccnc1)c1ccccc1` gave HCMV NEC inh -38.7, Sa growth inh 114.6, GIV Gai3 FP 102.6 and Sa growth inh second temp 87.2.
CCC(=O)N1CCc2cc(S(=O)(=O)NC(CC(C)C)C(=O)Nc3cc(C)ccc3OC)ccc21 (stereo not given) was read as HCMV NEC inh -17.6, Sa growth inh 99.5, GIV Gai3 FP 104.8 and Sa growth inh second temp 90.9.
`O=C(O)Cn1cccn1` gave HCMV NEC inh -8.3, Sa growth inh 98.2 and Sa growth inh second temp 89.1.
`Cc1nsc(NC(=O)c2oc3ccc(Cl)cc3c2C)n1` gave HCMV NEC inh -6.8 and GIV Gai3 FP 110.1.
Screening NC(=S)N1C(c2ccccc2)CCN1c1ccccc1 (stereo not given) returned Sa growth inh 71.9, GIV Gai3 FP 105.4 and Sa growth inh second temp 82.9.
CSC(=S)N(C)/N=C/c1cc(Cl)cc(Cl)c1O was read as HCMV NEC inh -17.6, Sa growth inh 82.4, GIV Gai3 FP 259.5 and Sa growth inh second temp 87.8.
For CCCCN(C(=O)c1sc2nc3n(c(=O)c2c1C)CCCCC3)C1CCN(C(C)=O)CC1 the results were HCMV NEC inh -13.4, Sa growth inh 101.8, GIV Gai3 FP 104.7 and Sa growth inh second temp 80.1.
O=C(CN1C(=O)CCc2cc(S(=O)(=O)N3CCCC3)ccc21)NC1CC1 was read as HCMV NEC inh -30.4 and GIV Gai3 FP 108.9.
COc1ccc(/C(C)=N/N=C(N)N)c(O)c1 was read as HCMV NEC inh -5.7, Sa growth inh 82.9 and Sa growth inh second temp 89.1.
Screening CCc1ccc(-n2nc3cc(C)c(NC(=O)c4cc(Cl)ccc4OC)cc3n2)cc1 returned HCMV NEC inh -19.5, Sa growth inh 99.2, GIV Gai3 FP 108.7 and Sa growth inh second temp 88.0.
Screening CCc1noc2nc(C)nc(NCCC3=CCCCC3)c12 returned HCMV NEC inh -26.5 and GIV Gai3 FP 101.1.
`CCCSc1ncc(Cl)c(C(=O)N(Cc2cccc(Cl)c2)C2CCS(=O)(=O)C2)n1` (stereo not given) gave HCMV NEC inh -4.4, Sa growth inh 105.9, GIV Gai3 FP 105.6 and Sa growth inh second temp 91.4.
For CCC(C)NC(=O)CSc1nc2ccccc2n(CC)c1=O (stereo not given) the results were HCMV NEC inh -45.9 and GIV Gai3 FP 111.4.
For COc1ccc(CCNC(=O)CSc2cc(=O)n(C)c3ccccc23)cc1OC the results were HCMV NEC inh -17.2, Sa growth inh 108.8, GIV Gai3 FP 104.9 and Sa growth inh second temp 83.7.
Screening N#Cc1cn(Cc2ccc(F)cc2)c2ccccc12 returned HCMV NEC inh 2.8, Sa growth inh 112.0 and Sa growth inh second temp 101.8.
CCOc1cccc(C2c3[nH]c4ccccc4c3CCN2C(=O)CCc2ccccc2)c1 (stereo not given) was read as Sa growth inh 106.3, GIV Gai3 FP 98.5 and Sa growth inh second temp 95.2.
For COc1ccc(NC(=O)CN(C)C(C)C(=O)N2CCCCC2)cc1 (stereo not given) the results were HCMV NEC inh -3.6, Sa growth inh 107.2 and Sa growth inh second temp 96.2.
`N#CCC(=O)Nc1ccc(Oc2ccccc2)cc1` gave HCMV NEC inh -39.1, Sa growth inh 111.8 and Sa growth inh second temp 79.3.
`CC(=O)c1cccc(NC(=O)c2ccc3nc(Cc4ccccc4)oc3c2)c1` gave Sa growth inh 107.2, GIV Gai3 FP 101.4 and Sa growth inh second temp 91.6.
Screening CN1C(=O)OC(C)(CCc2ccccc2)C1(C)O (stereo not given) returned HCMV NEC inh -10.1, Sa growth inh 87.6, GIV Gai3 FP 103.1 and Sa growth inh second temp 87.5.
Screening CCOc1ccccc1NC(=O)C1=C(C)Nc2ncnn2C1c1ccc(C)o1 (stereo not given) returned Sa growth inh 81.0, GIV Gai3 FP 96.2 and Sa growth inh second temp 92.8.
For O=C1c2ccccc2C(=O)c2c1oc(-c1ccccc1)c2C(=O)c1ccccc1 the results were Sa growth inh 78.0, GIV Gai3 FP 99.4 and Sa growth inh second temp 85.1.
COc1ccc(NC(=O)c2cnn(-c3ccc(Br)cc3)c2)cc1 was read as HCMV NEC inh -12.8 and GIV Gai3 FP 101.7.
`COc1nccnc1NS(=O)(=O)c1ccc(NCc2cc(Br)ccc2O)cc1` gave Sa growth inh 54.0, GIV Gai3 FP 95.9 and Sa growth inh second temp 18.7.
`N#C/C(=C/c1ccc(-c2cccc(C(F)(F)F)c2)o1)c1cccc(F)c1` gave HCMV NEC inh -15.1, Sa growth inh 110.4, GIV Gai3 FP 103.5 and Sa growth inh second temp 110.7.
Screening CS/C(=C(\C#N)C(=O)C1CC1)N1CCOCC1 returned HCMV NEC inh 26.5, Sa growth inh 105.4, GIV Gai3 FP 103.6 and Sa growth inh second temp 87.6.
CCN1CCN(c2ncc3c(n2)CCN(Cc2cccc(F)c2F)C3)CC1 was read as Sa growth inh 89.1, GIV Gai3 FP 106.6 and Sa growth inh second temp 95.0.
For O=C(CSc1nc2c(c(=O)[nH]1)CN(Cc1ccccc1)CC2)Nc1ccccc1 the results were HCMV NEC inh -24.2, Sa growth inh 81.2, GIV Gai3 FP 99.7 and Sa growth inh second temp 75.3.
O=C(CSc1ncc2c(n1)-c1ccccc1N(Cc1ccccc1)S2(=O)=O)Nc1ccccc1 was read as Sa growth inh 89.1, GIV Gai3 FP 101.0 and Sa growth inh second temp 86.6.
For CC1CCCN(C(=O)COC(=O)c2ccc(-c3cccc(C(F)(F)F)c3)o2)C1 (stereo not given) the results were HCMV NEC inh -24.8, Sa growth inh 100.6 and Sa growth inh second temp 87.6.
`Nc1c2c(=O)[nH]c(-c3ccccc3)nc2nn1-c1ccccc1` gave HCMV NEC inh -0.3, Sa growth inh 133.9, GIV Gai3 FP 105.2 and Sa growth inh second temp 80.1.
O=C(O)/C=C/c1cc(C(F)(F)F)ccc1Cl was read as HCMV NEC inh -6.1, Sa growth inh 90.2 and Sa growth inh second temp 98.2.
Screening Cc1ccc(-c2nnc(Nc3ccc(O)cc3)c3ccccc23)cc1S(=O)(=O)NCC1CCCO1 (stereo not given) returned HCMV NEC inh -26.2, Sa growth inh 115.8, GIV Gai3 FP 109.3 and Sa growth inh second temp 78.0.
For CCOC(=O)Cc1ccc(NC(=O)N2CCOc3ccccc32)cc1 the results were Sa growth inh 99.5, GIV Gai3 FP 99.5 and Sa growth inh second temp 84.6.
COc1cc(-c2nc3ccccc3c(=O)n2NC(=O)/C=C/c2ccc(Br)cc2)cc(OC)c1OC was read as HCMV NEC inh -19.9 and GIV Gai3 FP 108.1.
`COc1cc(NC(=O)CSc2ccc(-c3sc(C)nc3C)nn2)cc(OC)c1` gave Sa growth inh 89.2, GIV Gai3 FP 108.9 and Sa growth inh second temp 47.8.
Screening Cc1ccc(N2C(=O)N(Cc3cc(=O)n4ccccc4n3)c3ccccc3S2(=O)=O)cc1 returned HCMV NEC inh -49.5 and GIV Gai3 FP 101.6.
O=C(NCCN1CCCC1)c1[nH]nc2c1CCc1ccccc1-2 was read as HCMV NEC inh -11.9 and GIV Gai3 FP 100.2.
`Cc1ccc(S(=O)(=O)N(CC(=O)Nc2ccc3c(c2)OCCO3)C2CCCCC2)cc1` gave Sa growth inh 103.8, GIV Gai3 FP 103.0 and Sa growth inh second temp 93.0.
`CCN(C(=O)c1ccc(S(=O)(=O)N2CCC(C)CC2)cc1)C1CCS(=O)(=O)C1` (stereo not given) gave HCMV NEC inh -5.3, Sa growth inh 102.9 and Sa growth inh second temp 96.9.
For O=C(NC1CCCC1)c1ccc(CS(=O)(=O)c2cccc(C(F)(F)F)c2)o1 the results were Sa growth inh 91.9, GIV Gai3 FP 103.2 and Sa growth inh second temp 90.5.
Screening Cc1cc(C)nc(NS(=O)(=O)c2ccc(NC(=O)CCc3ccccc3)cc2)n1 returned HCMV NEC inh -8.7 and GIV Gai3 FP 102.2.
Screening Cc1ccc(/C=N/N2CCOCC2)s1 returned HCMV NEC inh -40.7, Sa growth inh 89.5 and Sa growth inh second temp 100.7.
`O=C(NC1CCCC1)C1CCN(c2cc(-c3cccc(F)c3)ncn2)CC1` gave HCMV NEC inh -37.9 and GIV Gai3 FP 104.7.
Screening CCC(Sc1nc2ccccc2c2nc(CCc3c(C)n[nH]c3C)nn12)C(=O)Nc1ccc(F)cc1 (stereo not given) returned Sa growth inh 100.7, GIV Gai3 FP 101.5 and Sa growth inh second temp 86.1.
CC(C(=O)NCc1ccc(F)cc1)N1Cc2ccccc2C1=O (stereo not given) was read as HCMV NEC inh -14.4, Sa growth inh 97.4, GIV Gai3 FP 100.9 and Sa growth inh second temp 90.5.
O=C(Nc1ccc(Cl)cc1)OC1CS(=O)(=O)CC1N1CCCC1 (stereo not given) was read as HCMV NEC inh 7.1, Sa growth inh 87.8, GIV Gai3 FP 105.1 and Sa growth inh second temp 88.5.
Screening Cc1nn2c(CN(C(=O)CN3CCOCC3)c3ccccc3)nnc2c2ccccc12 returned HCMV NEC inh 3.4, Sa growth inh 97.2, GIV Gai3 FP 101.2 and Sa growth inh second temp 101.7.
Screening CC(C)CCn1c(C2CCCO2)nc2ccccc21 (stereo not given) returned HCMV NEC inh -23.1 and GIV Gai3 FP 107.4.
Screening COc1ccc2oc3cc(O)cc(O)c3c(=O)c2c1 returned HCMV NEC inh -16.7 and GIV Gai3 FP 104.3.
`Cc1cc(C)n(-c2nc(C)c(C(=O)N(CCO)CCO)s2)n1` gave HCMV NEC inh -6.7 and GIV Gai3 FP 98.7.
`Cn1nc(C(=O)NCc2ccccc2)c2c1CCN(C(=O)C1CC1)C2` gave HCMV NEC inh -9.6 and GIV Gai3 FP 110.3.
Screening CSc1nc(-c2ccccc2)c(C#N)c(=O)[nH]1 returned HCMV NEC inh -7.7, Sa growth inh 104.8, GIV Gai3 FP 101.9 and Sa growth inh second temp 72.6.
For CCOC(=O)c1ccc(NS(=O)(=O)c2ccc(-c3cc(C)no3)cc2)cc1 the results were Sa growth inh 114.8, GIV Gai3 FP 104.1 and Sa growth inh second temp 93.2.
COc1ccc(CNCCC(c2ccc3c(c2)OCO3)c2ccccc2OC)cc1 (stereo not given) was read as HCMV NEC inh -24.3, Sa growth inh 86.4, GIV Gai3 FP 101.6 and Sa growth inh second temp 40.5.
Cc1cccc(N2CCN(C(=O)CSc3nc4ccccc4nc3N3CCCC3)CC2)c1C was read as HCMV NEC inh -8.4 and GIV Gai3 FP 98.8.
`O=C(C(NS(=O)(=O)c1ccccc1)c1ccccc1)N1CCCC1` (stereo not given) gave HCMV NEC inh -4.0, Sa growth inh 96.6, GIV Gai3 FP 113.5 and Sa growth inh second temp 86.1.
Screening Cc1cc(NC(=O)c2ccc(F)cc2)ccc1-c1cc2ccccc2oc1=O returned HCMV NEC inh -56.9, Sa growth inh 95.3, GIV Gai3 FP 104.0 and Sa growth inh second temp 84.7.
For CN(C)c1n[nH]c(=O)[nH]c1=O the results were Sa growth inh 106.0, GIV Gai3 FP 103.6 and Sa growth inh second temp 87.2.
CCc1ccc(C2C(C#N)=C(N)Oc3cc(N)ccc32)cc1 (stereo not given) was read as HCMV NEC inh 5.0, Sa growth inh 116.7, GIV Gai3 FP 101.5 and Sa growth inh second temp 98.1.
CC12C(=O)N(CCC(=O)O)C(=O)C1C1C=CC2C1 (stereo not given) was read as Sa growth inh 95.2, GIV Gai3 FP 106.6 and Sa growth inh second temp 90.7.
For CSCCC(NS(=O)(=O)c1ccc2c(c1)oc(=O)n2C)C(=O)N1CCN(c2cccc(Cl)c2)CC1 (stereo not given) the results were Sa growth inh 88.5, GIV Gai3 FP 98.1 and Sa growth inh second temp 96.7.
COc1ccc(N2CCN(C(=O)Cn3ncc4c3-c3cc(C)ccc3OC4)CC2)cc1 was read as HCMV NEC inh 11.5, Sa growth inh 88.0, GIV Gai3 FP 102.0 and Sa growth inh second temp 83.4.
CCn1c(N)c(C(=O)COC(=O)CC2Sc3ccccc3NC2=O)c(=O)[nH]c1=O (stereo not given) was read as HCMV NEC inh -18.9, Sa growth inh 84.0 and Sa growth inh second temp 91.0.
For CCC(C)NC(=O)c1ccc2c(c1)N(Cc1ccccc1)CCS2 (stereo not given) the results were HCMV NEC inh -8.6 and GIV Gai3 FP 104.6.

Compound activity (PubChem BioAssay)
